# Rce1 inh: inhibitors of yeast Ras-converting enzyme | Q03530 | yeast membranes, quenched prenylated peptide cleavage fluorescence | calls only | actives 0.27% (n = 290,000) | AID 2563;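 active = fall in fluorescence gain of 50% or more versus controls, with final raw signal at or below 3038400; inconclusive = same 50% fall but final raw signal above 3038400; inactive = fall in fluorescence gain under 50%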;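 also: plate controls were neutral control wells for no effect and wells lacking membranes for full effect; tested at 10 µM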
# Target sequence (Q03530 whole entry, looked up): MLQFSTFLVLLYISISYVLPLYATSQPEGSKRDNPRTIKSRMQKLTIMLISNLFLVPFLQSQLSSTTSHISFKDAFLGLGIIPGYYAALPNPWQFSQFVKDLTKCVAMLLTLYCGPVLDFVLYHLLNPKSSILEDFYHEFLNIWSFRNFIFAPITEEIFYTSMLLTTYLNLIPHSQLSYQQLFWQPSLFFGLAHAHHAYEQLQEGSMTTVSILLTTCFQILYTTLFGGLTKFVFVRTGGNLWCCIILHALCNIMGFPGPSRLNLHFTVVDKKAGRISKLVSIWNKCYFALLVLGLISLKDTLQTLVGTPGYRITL
# Env fusion inh: inhibitors of HIV Env-mediated cell fusion | HeLa-JRFL Env/CEM21 cell fusion, luciferase | inhibition, % at 12.3 µM | AID 651610 | actives 1.1% (n = 360,000);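 active = mean replicate inhibition score of at least 50 and every replicate individually at or above 50; inconclusive = only one of the two criteria met; inactive = mean below 50 and not all replicates reaching 50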;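 also: 0% = plate neutral controls and 100% = maraviroc near 300 nM; one replicate is shown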
# eIF4H FP inh: inhibitors of RNA binding by human eIF4H | Q15056 | eIF4H fluorescence polarization binding assay | inhibition, % at 35 µM | actives 0.94% (n = 290,000) | AID 2012;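 active = 50% or more with normal probe brightness, or confirmed in later tests; inconclusive = above 50% with abnormal brightness, or retests that disagree; inactive = below 50% or failed in later tests; about a fifth of its hits are not listed in these tables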;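 also: calls also rest on retests at 20 µM and on dose response follow-up; 0% = protein and probe with vehicle and 100% = probe without protein; strong numbers were not always called active; many hits fall short of the cut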
# MT1-MMP act inh: MT1-MMP (human) activation inhibition; AID 651647; HT1080 RFP-PRO-GFP cells, GFP/RFP ratio fluorescence, overnight; percent of plate control window, DMSO zero; actives 0.061% (n = 360,000); GFP/RFP ratio change, % at 20 µM;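 active = GFP/RFP ratio change of at least 30% with cell ATP level not reduced by more than half and red fluorescence within 50% of control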; also: strong numbers were not always called active
#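 system = RFP-PRO-GFP reporter HT1080 cells | dosing = 20 µM single dose, 1% DMSO | timing = overnight cell settling, then overnight compound exposure, 37 °C, 5% CO2 | read-out basis = GFP/RFP fluorescence ratio | controls = DMSO and RFP-L50D-GFP cell wells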
# CSC inhib: cancer stem cell inhibition; cancer stem cell-like cells viability, luminescence; inhibition, % at 7.5 µM; actives 1.1% (n = 300,000);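 active = mean at 75% or more and at least half the replicates too; inconclusive = mean and replicates disagree; tested in HMLE shEcad cells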;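 also: 0% = median of negative and 100% = median of positive control wells; the first replicate is given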
# PABP polyA inh: PABP-poly(A) binding inhibition. PABP-poly(A) RNA binding, fluorescence polarization. actives 1% (n = 290,000). AID 2014. P11940. inhibition, % at 35 µM;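 active = 50% or more with normal probe brightness, or confirmed in later tests; inconclusive = above 50% with abnormal brightness, or retests that disagree; inactive = below 50% or failed in later tests; about a fifth of its hits are not listed in these tables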;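 also: calls also rest on retests at 20 µM and on dose response follow-up; controls were probe without protein and protein plus probe with vehicle; some compounds called inactive have numbers as strong as hits; many hits fall short of the cut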
# Target sequence (P11940 whole entry, looked up): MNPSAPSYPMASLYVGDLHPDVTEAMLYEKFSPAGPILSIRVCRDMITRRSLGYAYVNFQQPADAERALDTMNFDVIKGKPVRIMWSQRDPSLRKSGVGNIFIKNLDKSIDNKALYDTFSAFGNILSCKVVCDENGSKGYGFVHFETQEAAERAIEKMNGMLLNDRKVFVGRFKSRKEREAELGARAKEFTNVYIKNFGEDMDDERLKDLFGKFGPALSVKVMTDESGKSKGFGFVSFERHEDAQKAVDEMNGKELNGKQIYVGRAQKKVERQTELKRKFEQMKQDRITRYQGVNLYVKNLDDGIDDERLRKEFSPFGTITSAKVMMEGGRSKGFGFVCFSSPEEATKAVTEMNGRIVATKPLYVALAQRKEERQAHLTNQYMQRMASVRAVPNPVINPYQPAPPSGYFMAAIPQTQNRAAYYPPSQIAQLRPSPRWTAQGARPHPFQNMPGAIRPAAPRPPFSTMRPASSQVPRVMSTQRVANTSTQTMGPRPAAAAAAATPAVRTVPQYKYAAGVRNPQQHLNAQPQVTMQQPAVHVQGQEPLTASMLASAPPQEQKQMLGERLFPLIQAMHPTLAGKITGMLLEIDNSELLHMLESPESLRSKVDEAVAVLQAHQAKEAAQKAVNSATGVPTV
# UUG fidelity: modulators of start codon recognition fidelity in yeast. actives 0.13% (n = 350,000). AID 602363. S. cerevisiae UUG-firefly luciferase reporter, luminescence/redox ratio. activity score, % at 18.7 µM;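 active = replicate mean at a twofold rise or more, about +100% in these data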;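 also: firefly luciferase made from a UUG start codon reports start codon fidelity; reporter light over untreated wells divided by growth signal over untreated wells; some hits fall short of that in this replicate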
# eIF4H FP inh retest: second read-out of eIF4H FP inh, no call of its own (marks repeat the call); inhibition, %; compound at 20 µM; confirmation average;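 mean of two retest wells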
# PABP polyA inh retest: further read-out of PABP polyA inh, marked with its call; inhibition, %; compound at 20 µM; confirmation repeats;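 mean of two retest wells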
# MT1-MMP act inh RFP: further read-out of MT1-MMP act inh, marked with its call; RFP signal change, %; measured here: RFP expression control read;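 0 = vehicle wells; hits needed this value within 50% of zero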
# * = called active by the depositor; i = inactive; ? = inconclusive; nt = no result given; & = joins results of further samples.
SMILES,Rce1 inh,Env fusion inh,eIF4H FP inh,MT1-MMP act inh,MT1-MMP act inh RFP,CSC inhib,PABP polyA inh,UUG fidelity,others
COc1ccccc1Nc1n[nH]c(=S)s1,i,-10,-2,6,4,7,12,nt,
COc1ccc(NS(=O)(=O)/C=C/c2ccccc2)cc1,i,28,11,2,-5,nt,-4,nt,
Cc1cccc(OCC(=O)Nc2ccc3oc(=O)ccc3c2)c1,i,-16,3,2,0,5,-6,-12,
Cn1c2ccccc2c(=O)c2c(=O)n(C3CCCCCC3)c(C3CCCCC3)nc21,i,-27,8,-14,-24,nt,120,-6,eIF4H FP inh retest=-1;PABP polyA inh retest=2
CC(C)(C)c1cc(NC(=O)C2(C)CCN2C(=O)C2(c3ccccc3)CCCC2)no1 (stereo unspecified),nt,-4,nt,-22,-15,nt,nt,-4,
CC(C)Oc1ccc(CNC(=O)Cn2c(=O)oc3ccccc32)cc1,i,-5,-7,-3,-7,8,-12,-9,
O=c1c2c3c(sc2nc2sc(C4CC4)nn12)CCCC3,i,nt,0,-2,-2,-15,3,-10,
Cc1oc2c(c1C(=O)Nc1cccc(C(=O)O)c1)CCCC2,i,-246,28,-3,3,-17,24,-20,
CCCCC(=O)NCc1ccc(F)cc1,i,-1,-6,-1,3,3,7,-16,
CCCOc1ccc(Cn2c(O)cc(=O)[nH]c2=O)cc1,i,nt,?,-21,9,9,?,8,
O=C1CC(c2ccccc2)Cc2nc3nc(C(F)(F)F)nn3cc21 (stereo unspecified),i,nt,92*,-20,0,3,102*,-19,eIF4H FP inh retest=96*;PABP polyA inh retest=74*
CC1OC(Nc2ccc(N=Nc3ccccc3)cc2)C(O)C(O)C1O (stereo unspecified),i,-37,-6,6,-2,1,-6,0,
O=c1nc2n(c3ccc([N+](=O)[O-])cc13)CCCCC2,i,6,-3,5,4,-12,4,-20,
Cc1ccc(SCCN)cc1C,i,11,8,-3,2,-1,-3,nt,
CC(C)(C)Nc1nc(SCC(=O)Nc2ccccc2)nc(N2CCOCC2)n1,i,28,-11,-9,-4,-20,11,nt,
Fc1ccc(/C=N/NC(=S)Nc2ccc(Cl)cc2Cl)cc1,i,-14,2,0,-9,28,4,nt,
Nc1c(C(=O)N/N=C/c2cccnc2)cnn1-c1ccccc1,i,34,-4,0,-1,nt,10,nt,
O=S1(=O)N=C(N2CCc3ccccc3C2)c2ccccc21,i,-72,-5,1,6,-6,-6,nt,
Cc1ccc(S(=O)(=O)N(NC2=NS(=O)(=O)c3ccccc32)C(=O)c2ccccc2)cc1,i,4,8,-2,1,16,30,nt,
Cc1ccc(-n2nc3c(N4CCC(C(=O)N5CCN(C)CC5)CC4)nnc(C)c3c2C)cc1,i,-7,5,-7,0,5,6,-11,

# Three entries already listed, sorted by formula weight, falling.
SMILES,Rce1 inh,Env fusion inh,eIF4H FP inh,MT1-MMP act inh,MT1-MMP act inh RFP,CSC inhib,PABP polyA inh,UUG fidelity,others
Cc1ccc(-n2nc3c(N4CCC(C(=O)N5CCN(C)CC5)CC4)nnc(C)c3c2C)cc1,i,-7,5,-7,0,5,6,-11,
CC1OC(Nc2ccc(N=Nc3ccccc3)cc2)C(O)C(O)C1O (stereo unspecified),i,-37,-6,6,-2,1,-6,0,
Nc1c(C(=O)N/N=C/c2cccnc2)cnn1-c1ccccc1,i,34,-4,0,-1,nt,10,nt,

# Carrying on.
SMILES,Rce1 inh,Env fusion inh,eIF4H FP inh,MT1-MMP act inh,MT1-MMP act inh RFP,CSC inhib,PABP polyA inh,UUG fidelity,others
CC(c1ccccc1)n1c(N2CCNCC2)nc2c1c(=O)[nH]c(=O)n2C (stereo unspecified),i,-3,7,-6,-3,-2,6,-7,
COc1ccc(-c2cc(=Nc3ccc(C)cc3)c3ccccc3o2)cc1,i,-43,-12,0,-9,58,6,-15,
COc1cc(C(=O)OCC(C)=O)c([N+](=O)[O-])cc1OC,i,11,6,3,2,-9,11,-11,
Cn1c(=O)oc2cc(S(=O)(=O)N3CCN(c4cccc(Cl)c4)CC3)ccc21,i,-38,103*,-15,6,-8,112*,-19,
COc1cc(OC)c(NC(=O)C2CCCO2)cc1Cl (stereo unspecified),nt,-8,-18,8,3,11,11,-32,
O=C(CNC(=O)c1ccco1)OC(C(=O)c1ccccc1)c1ccccc1 (stereo unspecified),i,nt,-6,-1,-4,-1,-12,-21,
Cc1ccc(C(=O)/C=C/c2ccc(F)cc2)o1,i,nt,8,-3,0,6,6,-3,
CCOc1ccccc1N1C(=O)CN(Cc2ccc(OC)c(OC)c2)C1=S,i,-4,0,4,-1,-7,-7,-11,
COc1ccc(CNC(=S)NCc2ccc(Cl)cc2)cc1OC,i,nt,-2,2,-13,-22,2,-17,
CC1(C(=O)NCCc2ccccc2)Cc2c(-c3ccc4c(c3)OCO4)ccnc2O1 (stereo unspecified),nt,-35,nt,-11,-13,nt,nt,-2,
Cc1cccc(N2CCN(C(=O)c3ccc(NC4=NC5CS(=O)(=O)CC5S4)cc3)CC2C)c1 (stereo unspecified),i,4,nt,3,-4,-10,nt,-5,
CCOc1cc(C(=O)OCc2ccc([N+](=O)[O-])cc2)ccc1OCC(=O)N1CCOCC1,i,-5,nt,0,0,-2,nt,1,
COc1ccc(NC(=O)COC(C)=O)cc1Cl,i,-36,-14,2,3,3,-9,-8,
COc1ccc(C(CC(=O)N2CCCC2)c2ccc(F)cc2)cc1 (stereo unspecified),i,5,-4,-3,-1,4,4,5,
COc1ccc(N(CC(=O)NCC(C)C)S(=O)(=O)c2ccccc2)cc1,i,-18,-4,1,2,7,31,nt,
CCOC(=O)C1=C(C)C(c2ccccc2O)NC(=O)N1 (stereo unspecified),i,-65,-3,2,8,-14,-1,3,
O=C(Oc1cccc(N2C(=O)CCC2=O)c1)C1CC(=O)N(c2ccc(Br)cc2)C1 (stereo unspecified),i,nt,5,4,1,-4,-6,11,
CC(=O)Nc1ccc(S(=O)(=O)N(C)c2nc3ccccc3nc2Cl)cc1,i,22,-3,0,-5,-14,13,0,
CCc1ccc(Nc2cc(C)nc3nc(C)nn23)cc1,i,4,0,6,3,-26,-9,-11,
COc1cc(C2NC(=S)NC(O)(C(F)(F)F)C2C(=O)c2cccs2)cc(OC)c1O (stereo unspecified),i,-14,-12,7,7,12,5,nt,
O=C(CN1CCN(C(=O)c2ccco2)CC1)Nc1ccccc1,i,-2,-1,-3,1,-2,7,-13,
COc1cccc(NC(=O)C2CC(=O)N=C(N)S2)c1 (stereo unspecified),i,nt,-8,4,3,nt,1,-15,
O=C(CSc1ccc(F)cc1)Nc1ccccc1Br,i,-18,22,-1,-1,-4,50,nt,
CCC(CC)N1CCN(C(=O)c2cc(OC)c(OC)c(OC)c2)CC1,i,1,2,-2,0,-16,6,-5,
C=CCOC(=O)C1=C(C)NC(SCC(=O)NC(=O)OCC)=C(C#N)C1c1cccnc1 (stereo unspecified),i,1&-6,7,-7&-11,2&2,-16,2,-10,
O=C(CCS(=O)(=O)Cc1ccccc1)NCc1ccco1,i,-15,-1,5,2,-4,-10,6,
Cc1ccc(-n2cc(CNCCN3CCOC3=O)c(-c3cccc(C)c3)n2)cc1,i,-9,11,3,0,-7,-7,nt,
O=C(CSc1nc(C2CC2)nc2ccccc12)N1CCCCC1,i,-2,3,-11,-9,32,-8,-12,
CC(=O)N1CC(C)Oc2ccc(S(=O)(=O)NC(CC(=O)O)c3ccccc3C)cc21 (stereo unspecified),i,-8,-10,0,0,-9,-5,-16,
COc1ccc(N2CC(C(=O)N3CCC(c4nc5ccccc5[nH]4)CC3)CC2=O)cc1 (stereo unspecified),i,-20,nt,2,1,11,nt,nt,
CN1OC[C@@H]2CN(C(=O)C(C)(C)C)[C@H](c3cccc(Br)c3)C[C@@H]21,nt,-15,nt,2,3,nt,nt,-12,
CCC(=O)c1ccc(OCC(O)CN2CCCCC2)cc1 (stereo unspecified),i,9,10,9,4,-6,-2,-6,
CSc1nnc2ccc(-c3ccc(C)cc3)nn12,i,4,3,7,6,-6,76,-16,eIF4H FP inh retest=-11;PABP polyA inh retest=38
O=C(CCl)Oc1ccc2occ(C(=O)c3cccs3)c2c1,i,nt,-3,-2,13,9,62,10,eIF4H FP inh retest=27;PABP polyA inh retest=28
CC(C)CC1C(=O)N(Cc2cn(CCC3OCCCO3)nn2)CCS(=O)(=O)N1Cc1ccc(-c2ccc(Cl)c(Cl)c2)cc1 (stereo unspecified),nt,8,nt,-2,-13,nt,nt,-9,
CCCCCCCCC(=O)NCCOc1ccc(OC)cc1,i,-8,-6,-11,9,-8,35,-13,
Cc1ccccc1C1CCCN(Cc2nc(C3CC3)no2)C1 (stereo unspecified),i,23,-5,-5,-4,-5,-10,nt,
NC(=O)COC(=O)CSc1ccc2ccccc2c1,i,21,-2,1,-1,nt,10,20,
CCN(CCO)Cc1cc(=O)oc2cc3c(cc12)CCC3,i,18,-2,3,2,-47,-3,nt,
O=C(CSc1cccc[n+]1[O-])NC1CCCCCCC1,i,3,3,-4,0,1,-8,nt,
CN(CCCNC(=O)CSc1cc(=O)n(C)c2cc(Cl)ccc12)Cc1ccccc1,i,0,-12,1,-1,-4,-6,nt,
CCOc1cc(CNCc2ccccn2)ccc1OCC(=O)NC1CCCCC1,i,nt,2,-3,-4,-3,23,-23,
O=C(Cc1ccc(F)cc1)NCCS(=O)(=O)N1CCN(c2cccc(Cl)c2)CC1,i,13,nt,2,-7,-7,nt,-18,
CCn1c(COc2ccccc2OC)nnc1SCC(=O)NC1CCCC1,i,-5,0,2,4,2,-2,-14,
CC1CCN(S(=O)(=O)c2ccc(C(C)C)cc2)CC1,nt,1,-13,0,-2,8,-4,nt,
O=C(CCn1nnc(-c2cccs2)n1)NC1CCCCC1,i,nt,-8,0,-2,8,12,-4,
CC1CCN(c2ccc([N+](=O)[O-])cc2C(=O)O)CC1,i,-2,-8,6,2,9,2,nt,
CCOC(=O)c1sc(NC(=O)Cc2ccc(C)cc2)nc1C,i,-26,2,2,-1,nt,-9,nt,
CCCSc1ccc2nc(-c3ccccc3)cn2c1,i,-81,-10,1,1,52,-8,nt,
COc1ccc(S(=O)(=O)NC(C)C(=O)Nc2ccc3c(c2)OCO3)cc1OC (stereo unspecified),i,-3,0,-2,-2,-5,2,-17,

# Additional structures follow.
SMILES,Rce1 inh,Env fusion inh,eIF4H FP inh,MT1-MMP act inh,MT1-MMP act inh RFP,CSC inhib,PABP polyA inh,UUG fidelity,others
CCC(CC)NC(=O)c1cc2c(C)nn(Cc3ccccc3Cl)c2s1,i,nt,-4,-2,-7,-14,9,nt,
O=c1[nH]cnc2c1cnn2Cc1ccccc1,nt,-20,-11,1,4,-16,-1,-18,
CCOC(=O)c1ccc(NS(=O)(=O)CC)cc1,i,-14,-4,11,3,-5,0,-7,
Cc1cc(C(=O)CN2C(=O)c3ccccc3S2(=O)=O)c(C)n1-c1ccccc1,i,nt,-6,8,1,-7,-3,-25,
O=C(COc1ccc(C(F)(F)F)cc1[N+](=O)[O-])Nc1cccc(C(F)(F)F)c1,i,2,-10,11,2,-10,-13,nt,
O=C(O)CSc1c(-c2ccccc2)[nH]c2ccccc12,i,-4,2,1,5,-11,-5,nt,
O=C(CNS(=O)(=O)c1cccs1)N1CCN(c2ccccc2F)CC1,i,-2,-5,nt,nt,28,-4,-20,
COc1ccc(NC(=O)N(Cc2ccc3c(c2)OCO3)C2CC(=O)N(c3ccc(OC)cc3)C2=O)cc1 (stereo unspecified),i,-71,-2,2,-3,nt,-1,-14,

# Bioassay records: PubChem BioAssay, several laboratories

# Rows were taken by chance, and some 2.9% of all compounds hit somewhere here.
